HPGD block = qHTS Assay for Inhibitors of HPGD (15-Hydroxyprostaglandin Dehydrogenase); 15-hydroxyprostaglandin dehydrogenase [NAD(+)] (Homo sapiens), P15428; purified HPGD, NADH fluorescence kinetic, PGE2 substrate; Potency, µM, for the others: top-dose activity change, negative = inhibition, most hits filed as inhibitors; hit rate 4.3% among 150,000; AID 894, 2007; active = well fitted inhibition curve with a large enough effect (not every such curve was filed as active); inconclusive = small, poorly fitted or top-dose-only effect, or another doubt; inactive = no such curve, though single readings can be large or run the other way;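 note: top concentration of the series not given in the record; plate controls included wells without enzyme; inactives centre near -10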
Target sequence (P15428 whole entry, looked up): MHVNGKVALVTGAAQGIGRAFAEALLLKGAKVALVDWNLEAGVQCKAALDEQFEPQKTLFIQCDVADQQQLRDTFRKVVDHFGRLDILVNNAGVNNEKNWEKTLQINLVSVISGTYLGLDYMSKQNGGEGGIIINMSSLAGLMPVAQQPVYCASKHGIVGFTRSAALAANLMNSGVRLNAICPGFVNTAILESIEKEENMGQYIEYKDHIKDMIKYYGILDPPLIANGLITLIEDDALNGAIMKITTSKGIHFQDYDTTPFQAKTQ
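NADH formation kinetics: reaction with 30 uM PGE2 and 1 mM NAD+ (final), 20 nM enzyme, Tris-HCl pH 8 with Tween 20, after 15 min compound preincubation at room temperature. Fluorescence change, last versus first of five reads.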
Active calls of the source: *; ? = inconclusive; & = joins results of further samples. % is set by controls: 0 for no effect and ±100 for the full control effect; potency is the fitted concentration of half-maximal effect.

compound	HPGD block
O=C(Nc1cccc(C(F)(F)F)c1)c1cccn(Cc2ccc3c(c2)OC(F)(F)O3)c1=O	-29%
O=C1NC(=O)N(c2ccc3c(c2)OCO3)C(=O)/C1=C\c1ccc(N2CCCCC2)o1	-26%
CN(C)c1ccc(NC(=O)CN2C(=O)CN=C(c3ccccc3)c3ccccc32)cc1	-2%
C=C(c1ccccc1)P(=O)(O)O	-4%
O=c1[nH]c(=O)n(Cc2ccc(F)cc2)c(O)c1C=NCCCO	-17%
O=C1OC(c2ccc(O)c(S(=O)(=O)O)c2)(c2ccc(O)c(S(=O)(=O)O)c2)c2c(Br)c(Br)c(Br)c(Br)c21	-19%
CCC(=O)N1c2ccc(S(=O)(=O)CCC(=O)N3CCC4(CC3)OCCO4)cc2CC1C (configuration not stated)	-5%
CCN1CCN(c2cc(N3CCCC3)c([N+](=O)[O-])cc2F)CC1	-18%
O=[N+]([O-])c1ccc(N2CCNCC2)cc1NCc1ccco1	-19%
O=P(C(c1c[nH]c2ccccc12)N1CCOCC1)(N1CCOCC1)N1CCOCC1 (configuration not stated)	-14%
C=Cn1ccnc1P(=S)(c1nccn1C=C)c1nccn1C=C	-4%
OCC(Cl)CCl (configuration not stated)	0%
CC(C(=O)O)c1ccc(-c2ccccc2)c(F)c1 (configuration not stated)	-28%&-25%
CC(=NCc1ccco1)c1c(O)n(Cc2ccccc2)c(=O)[nH]c1=O	?
COC(=O)C(O)C(O)(CCC(C)C)C(=O)OC1C(OC)=CC23CCCN2CCc2cc4c(cc2C13)OCO4 (configuration not stated)	0%
O=C(O)CN1C(=O)CN=C(c2ccccn2)c2cc(Cl)ccc21	1%
O=C1NC(=O)C(CCc2ccccn2)(Cc2cccc(Cl)c2Cl)C(=O)N1c1ccc(Br)cc1 (configuration not stated)	-3%
CC(N)C(=O)OC(C)(C)Cc1ccc(Cl)cc1 (configuration not stated)	-11%&-1%
O=[N+]([O-])c1ccc(Cl)c(Cl)c1Cl	-9%
CC1CC(Cl)CCC1C(=O)OC(C)(C)C (configuration not stated)	-4%
CCC12CN3CCN(CC(C3)/C1=N\O)C2	-3%
N#CCP(=S)(c1ccccc1)c1ccccc1	-7%
C[N+]1(C)[C@@H]2CC(OC(=O)[C@H](CO)c3ccccc3)C[C@H]1[C@@H]1O[C@@H]12 (some centres not stated)	3%
O=c1cccc2n1CC1CC2CN(Cc2ccc3c(c2)OCO3)C1 (configuration not stated)	-3%
CC(C)C(=O)c1cn(Cc2ccccc2C#N)c2ccccc12	-3%
C=CCN1C(=O)C2(C(C(=O)OCC)=C(N)Oc3ccccc32)c2c1c1ccccc1oc2=O (configuration not stated)	-8%
Oc1c(Br)cc(Br)cc1Br	-9%
CCC(CC)N1CCN(C(=O)Cc2ccccc2)CC1	3%
O=c1[nH]c(=S)n(-c2ccccc2F)c(O)c1C=NCc1ccco1	-21%
C[C@@H]1O[C@H](OC2[C@@H](O)[C@H](O)C(O)[C@H](O)[C@H]2O)[C@@H](N)C[C@@H]1N=C(N)C(=O)O (some centres not stated)	-1%
COC(=NC1CCCC1)C(O)c1c[nH]c2ccccc12 (configuration not stated)	-12%
CSCCC(N=Cc1c(O)n(-c2ccc(Br)cc2)c(=O)[nH]c1=O)C(=O)OC(C)(C)C (configuration not stated)	-12%
C=CCN1C(=O)/C(=C/c2cc(C)n(-c3cccnc3)c2C)C(=O)NC1=S	10µM*
CCN1CCC2(CCNC2)C1 (configuration not stated)	-12%
O=C(CCNS(=O)(=O)c1ccccc1)Nc1ccc(Cl)cc1C(=O)c1ccccc1	-16%
CC(C)C[C@H]1C(=O)N2CCCC2[C@]2(O)O[C@](NC(=O)[C@@H]3C=C4c5cccc6[nH]cc(c56)CC4N(C)C3)(C(C)C)C(=O)N12 (some centres not stated)	?
CC(=NCCC(c1ccccc1)c1ccccc1)c1c(O)n(C)c(=O)n(C)c1=O	-5%
c1ccc2c([C@@H]3CCN(CCN4CCOCC4)C3)c[nH]c2c1	-2%
CCCCCCCCCCCCCCC[C@@H](O)[C@@H](N)COP(=O)(O)O	-9%
O[C@@H]1CCCC[C@H]1N1CCC(c2ccccc2)CC1	-1%
O=C(Oc1ccccc1)N1CCC[C@@]2(CCN(Cc3nccs3)C2)C1	-5%
COC(=O)CSc1nc2sc3c(c2c(=O)n1C1CCCCC1)CCN(C)C3	?
Cc1cccc(OP(=O)(Nc2cccnc2)Oc2cccc(C)c2)c1	-7%
NC(=O)c1sc2nc3c(c(-c4cccs4)c2c1N)CCCC3	?
CN[C@@H]1C[C@H]2O[C@@](C)([C@@H]1OC)n1c3ccccc3c3c4c(c5c6ccccc6n2c5c31)C(=O)NC4	-26%
Nc1ccccc1C(=O)OCCOc1ccccc1	?
COc1cc(C2c3cc4c(c(O)c3CC3COC(=O)C32)OCO4)cc(OC)c1OC (configuration not stated)	-3%
C=CCN1C(=O)/C(=C/c2ccc3c(c2)CCCN3CCC)C(=O)NC1=S	14µM*

Some of these compounds in order of formula weight, low to high:
compound	HPGD block
CC(C(=O)O)c1ccc(-c2ccccc2)c(F)c1 (configuration not stated)	-28%&-25%
CCN1CCN(c2cc(N3CCCC3)c([N+](=O)[O-])cc2F)CC1	-18%
C=Cn1ccnc1P(=S)(c1nccn1C=C)c1nccn1C=C	-4%

The list continues:
compound	HPGD block
Cc1cccc(-n2c(O)c(/C=N/Nc3nc4c(c(=O)n(C)c(=O)n4C)n3C)c(=O)[nH]c2=S)c1	-28%
C[C@@H](C(=O)O)c1ccc(-c2ccccc2)c(F)c1	28µM*
COc1ccc(-n2c(O)c(C(C)=NCCCn3ccnc3)c(=O)[nH]c2=O)cc1	3%
COc1ccccc1-n1c(CNCC2CCCO2)nc2ccccc2c1=O (configuration not stated)	5%
CCCCN1C(=O)NC(=O)C2(Cc3cc(C)ccc3N(C)C2)C1=O (configuration not stated)	-10%
OCCN1C2CCC1CC(O)(c1ccc(F)cc1)C2 (configuration not stated)	-9%
Brc1cccc(-c2ccccc2)c1	-2%
COc1ccc(CCNCc2ccccn2)cc1OC	-7%
Cc1cccn2c(=O)c3c(nc12)N1CCc2ccccc2C1C1(C3)C(=O)NC(=O)N(C)C1=O (configuration not stated)	-14%
CC(=NCCCn1ccnc1)c1c(O)n(C)c(=O)n(C)c1=O	-8%
NC1C[C@H]1c1ccccc1 (some centres not stated)	?
CC1=NN(c2ccc(S(=O)(=O)O)cc2C)C(=[OH+])[C@H]1N=Nc1cc(S(=O)(=O)O)ccc1C(=O)O.O.[Cr]	-16%
COc1cc(/C=C2\C(=O)NC(=O)N(c3ccccc3)C2=O)cc(OC)c1O	32µM*
COc1ccc(Cn2c(O)c(C=NCCCn3ccnc3)c(=O)[nH]c2=O)cc1	-8%
CC(=NCCCN1CCOCC1)c1c(O)n(-c2ccccc2C)c(=O)[nH]c1=O	-8%
O=C1/C(=C\c2cc3c(cc2Br)OCO3)N2CCC1CC2	?
Cc1cccc(N2C(=O)/C(=C/N3CCN(C(=O)c4ccco4)CC3)C(=O)NC2=S)c1	-14%
O=C(C1CC(c2ccccc2O)=NO1)N1CCC2(CC1)OCCO2 (configuration not stated)	-8%
Cc1cc(OC(=O)c2ccco2)c2c3c(c(=O)oc2c1)CCCC3	-11%
C[C@H]1O[C@H](O[C@H]2[C@H](O)[C@@H](O)[C@@H](O)[C@H](O)[C@@H]2O)[C@@H](N)C[C@@H]1NC(=N)C(=O)O	-1%
CCC12C=CCN3CCC4(c5ccc(OC)cc5N(C)C4[C@@](O)(C(=O)OC)C1OC(C)=O)C32 (some centres not stated)	-7%
O=C(O)COc1ccccc1	-14%
COP(=O)(OC)OC=C(Cl)Cl	-13%&-4%
C=CCn1c(=O)c(C=Nc2cccnc2Cl)c(O)n(CCCC)c1=O	-10%
CCOc1ccccc1N1C(=O)NC(=O)/C(=C/c2ccc3c4c(cccc24)CC3)C1=O	?
COc1ccn(C)c(=O)c1C#N	-2%&-9%
CN1CCN(C(=S)SCC(=O)Nc2ccc(Cl)cc2C(=O)c2ccccc2)CC1	-18%
O=C1NO[C@H]2[C@@H]1CN[C@@H]2C(=O)O	-17%
CCCCCC[C@H]1C(=O)O[C@H](C)[C@H](NC(=O)c2cccc(NC=O)c2O)C(=O)O[C@@H](C)[C@H]1OC(=O)CC(C)C	?
CN(C)S(=O)(=O)c1cc(NC(=O)C[N+]23CCN(CC2)CC3)ccc1Cl	-13%
Cc1cccc(-n2c(O)c(/C=N/N3CCOCC3)c(=O)[nH]c2=S)c1	-10%
c1ccc(Nc2cccc3ccccc23)cc1	?
Cc1cccc([N+](=O)[O-])c1	-7%
CC(=O)[C@H]1CCC2C3CC[C@H]4C[C@H](O)CC[C@]4(C)C3CC[C@@]21C (some centres not stated)	2%
Cc1cc(OCC(=O)Nc2cc(C)nn2-c2ccccn2)c2c3c(c(=O)oc2c1)CCC3	-17%
CO[C@H]1C=C2CCN(C)[C@@H]2[C@@H]2c3cc4c(cc3C(=O)O[C@H]21)OCO4	-3%
COc1cc2c(cc1OC)[C@@H]1C(=O)c3ccc4c(c3OC1CO2)CC(C(C)C)O4 (some centres not stated)	-28%
CN1C(=O)C(=Cc2ccccc2Oc2ccc(Cl)c(F)c2)C(=O)N(C)C1=O	11µM*
O=C(CCS(=O)(=O)c1ccc(Br)cc1)N1CCC2(CC1)OCCO2	7%
O=C(Cc1ccccc1)OCc1ccccc1	-17%
CC(C)CC(NC(=O)C1CCCCC1)C(=O)N1CCC2(CC1)OCCO2 (configuration not stated)	-9%
Cc1csc(NC(=O)C2CCCN(S(=O)(=O)c3ccc4c(c3)oc(=O)n4C)C2)n1 (configuration not stated)	8.9µM*
O=C(Cn1c(=S)[nH]c2ccccc2c1=O)N1CCC2(CC1)OCCO2	-11%
C#C[C@]1(O)CC[C@H]2[C@@H]3CCC4=CC(=O)CC[C@]4(C)[C@H]3CC[C@@]21C	-7%
Cn1c(O)c(C=Nc2ccc3c(c2)CCC3)c(=O)n(C)c1=O	?
COc1cc2c(cc1OC)[C@@]13CCN4C=C5CCO[C@H]6CC(=O)N2[C@@H]1C6[C@H]5C[C@H]43 (some centres not stated)	-9%
N[C@H](CCP(=O)(O)O)C(=O)O	-7%&-5%
CCOC(=O)C1=C(N)Oc2ccccc2C12C(=O)N(CC(=O)OC)C(CC(=O)OC)=C2C(=O)OC (configuration not stated)	-2%
Cc1csc(=N)n1Cc1ccccc1	-5%
Cc1ccccc1-n1c(-c2ccco2)nc2ccccc2c1=O	-12%
Cc1c(C(=O)N2CCC3(CC2)OCCO3)oc2ccccc12	-9%
O=C(CNC(=O)c1ccc(Cl)cc1)Nc1ccc(Br)cc1C(=O)c1ccccc1	-19%
C=CC1CN2CCC1CC2c1[nH]c2ccccc2c1CCO (configuration not stated)	-9%
C=CCNC(=O)c1c(N)n(Cc2ccco2)c2nc3ccccc3nc12	?
O=C1C2CCCN2C(c2cccs2)N1c1ccccn1 (configuration not stated)	-14%
COc1ccc(C(c2c(O)c3ccccc3oc2=O)c2c(C)n(C)n(-c3ccccc3)c2=O)cc1 (configuration not stated)	-4%
C=CCn1c(O)c(C(C)=NCCC(c2ccccc2)c2ccccc2)c(=O)[nH]c1=O	-10%
Cc1nc2ccccc2cc1C[N+]12CN3CN(CN(C3)C1)C2	-1%
C/C=C1\C[C@H](C)[C@@](O)(CO)C(=O)OCC2=CCN3CC[C@@H](OC1=O)[C@@H]23	-3%
CCC1CN2CCC1CC2C(O)c1ccnc2ccccc12 (configuration not stated)	3%

Next section
compound	HPGD block
COC(=O)c1ccc(CN2CCN(Cc3ccccc3)CC2)cc1	-4%
CN[C@H]1C[C@H]2O[C@@](C)([C@H]1OC)n1c3ccccc3c3c4c(c5c6ccccc6n2c5c31)C(=O)NC4	?
CN1CC[C@@]2(CCCN(C(=O)Oc3ccccc3)C2)C1	-5%
C=CCn1c(O)c(C(C)=NCc2cc(OC)cc(OC)c2)c(=O)[nH]c1=O	-20%
CCCCC[C@@H](/C=C/C=C\C/C=C\C/C=C\CCCC(=O)O)OO	-6%
O=C(c1cc2c(s1)CCCC2)N1CCC2(CC1)OCCO2	25µM*
COc1ccc(CC2C(=O)N(c3ccccc3)C(=O)N(c3ccccc3)C2=O)c(OC)c1	-7%
COC(=O)C12C/C=C\Cc3ccccc3[C@@H]1CNC2=O (some centres not stated)	-8%
O=C(Cc1ccccc1)N1CCN(Cc2c[nH]c3ccccc23)CC1	-9%
CC(C)n1nnnc1CN1CCN(C)CC1	-8%
COc1ccc(C=O)cc1	6%
O=C(O)Cc1ccc([N+](=O)[O-])cc1[N+](=O)[O-]	-3%

Reprinted at random: three entries already listed, in no set order.
compound	HPGD block
NC(=O)c1sc2nc3c(c(-c4cccs4)c2c1N)CCCC3	?
CC(=O)[C@H]1CCC2C3CC[C@H]4C[C@H](O)CC[C@]4(C)C3CC[C@@]21C (some centres not stated)	2%
CC(=NCCC(c1ccccc1)c1ccccc1)c1c(O)n(C)c(=O)n(C)c1=O	-5%

Some of the compounds tested. The share of hits here may be higher or lower than overall.
